# 2A Renilla: FMDV 2A StopGo reporter, Renilla signal. HEK cells with a luciferase reporter of 2A StopGo recoding. Potency, µM (series often up to 57.5 µM), for the others: at the top dose signal change, negative = less light. hit rate 0.32% among 120,000. AID 1745857; active means well fitted falling curve with a large enough effect; inconclusive means small, poorly fitted or top-dose-only effect; inactive means no such curve, though single readings can be large or run the other way; also: nearly all actives have a fitted effect of over 55% in size; overnight with compound
# StopGo FLuc: lowers the firefly signal of an FMDV 2A StopGo reporter; HEK cells with a luciferase reporter of 2A StopGo recoding; hit rate 0.23% among 120,000; AID 1745856; Potency, µM (titrated, usually from 57.5 µM), inactives show at the highest dose signal change, negative = less light; active = well fitted falling curve with a large enough effect; inconclusive = small, poorly fitted or top-dose-only effect; inactive = no such curve, though single readings can be large or run the other way; also: nearly all actives have a fitted effect of over 60% in size; overnight with compound
# Active calls of the source: *; ? = inconclusive; [ ] = another dose, or the depositor's remark. % is scaled to controls: 0 for no effect and ±100 for the full control effect; potency is read from the fitted curve at half-maximal effect.
# The first seven records, ahead of the listing:
SMILES	StopGo FLuc	2A Renilla
N#Cc1nc(-c2ccco2)oc1N1CCC(C(=O)NC2CCCCCCC2)CC1	26%	-7%
O=C(Nc1ccc(NC(=O)C(F)(F)C(F)(F)OC(F)(F)F)cc1)C(F)(F)C(F)(F)OC(F)(F)F	11%	5%
CCOc1ccccc1NC(=O)c1cc2c(s1)-c1ccccc1S(=O)(=O)C2	11%	11%
Cc1cccc(N2CCN(S(=O)(=O)c3ccc4c(c3)CCCN4C(=O)C3CCC3)CC2)c1C	-13%	-2%
O=C(COc1ccc(C(=O)c2ccc(F)cc2)cc1)NC(=O)NCc1ccccc1	0%	16%
COc1ccccc1-c1noc(-c2ccc(S(=O)(=O)N3CCOCC3)o2)n1	-7%	-8%
C/C(=N\O)c1ccc(OCC(O)CNC(C)C)cc1 (stereo not given)	3%	-5%

# The whole of this part (from the top)
SMILES	StopGo FLuc	2A Renilla
N#Cc1nc(-c2ccco2)oc1N1CCC(C(=O)NC2CCCCCCC2)CC1	26%	-7%
O=C(Nc1ccc(NC(=O)C(F)(F)C(F)(F)OC(F)(F)F)cc1)C(F)(F)C(F)(F)OC(F)(F)F	11%	5%
CCOc1ccccc1NC(=O)c1cc2c(s1)-c1ccccc1S(=O)(=O)C2	11%	11%
Cc1cccc(N2CCN(S(=O)(=O)c3ccc4c(c3)CCCN4C(=O)C3CCC3)CC2)c1C	-13%	-2%
O=C(COc1ccc(C(=O)c2ccc(F)cc2)cc1)NC(=O)NCc1ccccc1	0%	16%
COc1ccccc1-c1noc(-c2ccc(S(=O)(=O)N3CCOCC3)o2)n1	-7%	-8%
C/C(=N\O)c1ccc(OCC(O)CNC(C)C)cc1 (stereo not given)	3%	-5%
Cc1ccc2c(C)nc(Nc3nc(C)cc(-c4ccccc4)n3)nc2c1	7%	3%

# Next results:
SMILES	StopGo FLuc	2A Renilla
COc1ccccc1NC(=O)CN1C(=O)C(c2ccc(F)cc2)=NC12CCCCC2	0%	-9%
Cc1ccc(OCn2ccc(C(=O)NCc3cnn(C)c3)n2)c(C)c1	18%	7%
Cn1cc(C(=O)NCc2ccc(F)cc2)c(=O)c2cc(S(=O)(=O)N3CCCCC3)ccc21	-10%	1%
CCc1nc2ccc(C(=O)N3CCN(c4ccc(Cl)cc4)CC3)cc2nc1CC	61%[activator]	5%
CCOc1ccc(N2CC(c3nc(-c4ccccn4)no3)CC2=O)cc1 (stereo not given)	-8%	5%
Cc1ccc(N2CCn3c2nc2c3c(=O)n(Cc3cccc(Cl)c3)c(=O)n2C)cc1C	1%	2%
O=C(NC1CCCCC1)c1cccc(NC(=O)C2CC2)c1	83%[activator]	12%
C=CCN(CC#Cc1ccc(C(F)(F)F)cc1)Cc1ccc(OC)cc1OC	-9%	-11%

# (list continues)
SMILES	StopGo FLuc	2A Renilla
Cc1cccc(C)c1-n1ncc(C(=O)NCCCN2CCC(C)CC2)c1C1CCN(C(=O)OC(C)(C)C)CC1	-19%	-10%
CC(C)c1cc(=O)oc2cc(OS(=O)(=O)c3ccc(S(C)(=O)=O)cc3)ccc12	?	-6%[1.06 µM]
CC1CCN(c2ccc(-c3noc(-c4cc5ccccc5oc4=O)n3)cc2)CC1	145%[activator]	0%
Cc1ccc(Cl)cc1N(C)C(=O)c1cc2ccc3cccnc3c2[nH]1	-4%	-19%
Cc1ccc2c(c1)Oc1ccc(S(=O)(=O)N(C)Cc3ccccc3)cc1C(=O)N2	5%	10%
CCOC(=O)c1ccc(NC(=O)CCn2c(=O)c3cccn3c3cccnc32)cc1	0%	3%
COc1cccc(N=C2SC(C(=O)Nc3cccc(Cl)c3)CC(=O)N2C)c1 (stereo not given)	0%	-2%
COc1ccccc1C(=O)OC(c1ccc(NC(=O)c2ccc(OC(F)F)cc2)cc1)(C(F)(F)F)C(F)(F)F	21%	-10%

# More structures.
SMILES	StopGo FLuc	2A Renilla
CN(C)C(=O)CN1CCCN(Cc2nc3ccccc3o2)CC1	-3%	-9%
CC(C)c1ccccc1OCC(O)Cn1cnc2c(cnn2-c2ccc(F)cc2)c1=O (stereo not given)	-2%	-10%
CCCN(CCC)c1ccc(NS(=O)(=O)c2ccc(C(C)=O)cc2)cc1C(=O)O	18%	18%
Cc1cccc(NC(=O)CSc2nc3ccccc3c(=O)n2CC2CCCO2)c1 (stereo not given)	-4%	192%[activator]
O=C(CCc1ncc(-c2ccc(F)cc2)o1)N1CCN(c2ccc([N+](=O)[O-])cc2)CC1	82%[activator]	-14%
CC(Sc1ccc2c(c1)OCCCO2)C(=O)c1c[nH]c2ccccc12 (stereo not given)	-3%	-4%
CC(Sc1ncc(-c2ccc(Br)cc2)n1C)C(=O)NC(N)=O (stereo not given)	27%	-7%
Cc1ccc(-c2cc(C(=O)NC(C)CCc3ccccc3)c3cc(Br)ccc3n2)cc1 (stereo not given)	-9%	4%

# (continued)
SMILES	StopGo FLuc	2A Renilla
COC(=O)/C(C#N)=C/c1ccc(-c2ccc(Br)cc2)o1	0%	21%
O=S(=O)(Nc1nc2ccccc2nc1NCc1ccc(F)cc1)c1cccc2nsnc12	-1%	98%[activator]
CC(C)(C)C(=O)NC(C(=O)O)C12CC3CC(CC(C3)C1)C2 (stereo not given)	9%	-5%
Cc1c(C(c2ccc(Cl)cc2Cl)c2c(O)c3ccccc3oc2=O)c(=O)n(-c2ccccc2)n1C (stereo not given)	1%	166%[activator]
CNC(=O)NC(=O)CN(C)Cc1ccc(C(=O)NC2CC2)cc1	1%	1%
Cc1nc2n(c(=O)c1CCN1CCC(c3noc4cc(F)ccc34)CC1)CCC[C@H]2O	-13%[27 µM]	-10%[23.8 µM]
Cc1ccc(OCC(=O)OCC(=O)Nc2sccc2C(N)=O)cc1C	7%	-9%
CCN(CC)C(=O)c1ccc(NC(=O)c2cc3cc(F)ccc3[nH]2)cc1	54%[activator]	0%

# Continuation.
SMILES	StopGo FLuc	2A Renilla
CCc1ccc(NC(=O)Cc2csc(COc3cccc(C)c3)n2)cc1	37%[activator]	13%
COc1ccc(NC(=O)Cc2ccccc2F)cc1S(=O)(=O)Nc1ccc(Cl)cc1	27%	368%[activator]
Cc1ccc(C(=O)CC2(O)C(=O)N(Cc3ccccc3)c3ccccc32)c(C)c1 (stereo not given)	18%	-6%
CCCC(C(=O)NCc1ccccn1)c1ccccc1 (stereo not given)	17%	-3%
Cc1noc2ncnc(N3CCCC(C(=O)NC(C)C)C3)c12 (stereo not given)	-11%	-11%
COc1ccc(CC(=O)NCC(c2cccs2)S(=O)(=O)c2ccc(F)c(C)c2)cc1 (stereo not given)	-8%	-5%
Cc1ccc(C)c(NC(=O)c2cnc3sc(N4CCOCC4)nn3c2=O)c1	-4%	-11%
CCOc1ccc2c(c1)cc(C(=O)Nc1cc(OC)ccc1OC)n2C	7%	-3%

# Other records follow:
SMILES	StopGo FLuc	2A Renilla
Cc1ccccc1C(=O)N(Cc1ccc(N(C)C)cc1)Cc1ccco1	20%	15%
COc1cccc2sc(N(Cc3cccnc3)C(=O)c3ccco3)nc12	-23%	-1%
CC1=C(c2ccc(Cl)cc2)S(=O)(=O)NC1=NCCCN1CCN(c2cc(C)ccc2C)CC1	-26%	-17%
NC(=O)C1CCN(C(=O)/C=C/c2ccc(C(F)(F)F)cc2)CC1	96%[activator]	9%
CCN(CC)S(=O)(=O)c1ccc2nc(NC(=O)c3cccnc3)sc2c1	55%[activator]	31%[activator]
Cc1ccc(CNC(C)C23CC4CC(CC(C4)C2)C3)o1 (stereo not given)	25%	6%
CC(C)(C)C(=O)Oc1ccc2c(c1)O/C(=C\c1ccncc1)C2=O	1%	-10%
Cc1nn(C(C)C)c(C)c1NC(=O)c1cc2occc2n1Cc1ccc(Cl)cc1	4%	-24%

# One compound at a time (already shown). Values in the order: StopGo FLuc, 2A Renilla
# CC1=C(c2ccc(Cl)cc2)S(=O)(=O)NC1=NCCCN1CCN(c2cc(C)ccc2C)CC1 as listed: -26%, -17%
# Cc1ccccc1C(=O)N(Cc1ccc(N(C)C)cc1)Cc1ccco1 as listed: 20%, 15%
# NC(=O)C1CCN(C(=O)/C=C/c2ccc(C(F)(F)F)cc2)CC1 as listed: 96%[activator], 9%
# CC(C)(C)C(=O)Oc1ccc2c(c1)O/C(=C\c1ccncc1)C2=O as listed: 1%, -10%

# Additional structures.
SMILES	StopGo FLuc	2A Renilla
COc1ccc(C(=O)Oc2ccc(C(C)(C)C)cc2Br)cc1	30%	-15%
COc1ccccc1C(=O)NC1=C(C)Nc2ncnn2C1c1c[nH]c2ccccc12 (stereo not given)	11%	16%
Cc1cccc2nc(CSc3nnc(N4CCCC4)n3-c3cccc(Cl)c3)cn12	0%	34%[activator]
CCOc1ccc(-c2cc(C(=O)N3CCN(c4cccc(C(F)(F)F)c4)CC3)c3ccccc3n2)cc1	-8%	-2%
NC(=S)N/N=C/c1ccc(Cl)cc1Cl	0%	16%
COCCCn1c(SCC(=O)NCc2ccccc2)nc2c(sc3ccccc32)c1=O	-4%	5%
CCOC(=O)C(C)Oc1cc2oc(=O)cc(CC)c2cc1Cl (stereo not given)	10%	4%
Cc1ccc(/C=C/C(=O)O)c(C)c1	10%	13%

# Further records follow.
SMILES	StopGo FLuc	2A Renilla
CC(Nc1nc2c(c(=O)[nH]c(=O)n2C)n1Cc1ccccc1Cl)c1ccccc1 (stereo not given)	-5%	-4%
Cc1nc(NC2CC2)sc1C(=O)N1CCC(C(N)=O)CC1	11%	-3%
Cc1cc(NC(=O)c2cccc(F)c2)cc(-c2nc3ccccc3o2)c1O	11%	7%
COC(=O)C1=C(C)Nc2nc3ccccc3n2C1c1ccc(C)cc1 (stereo not given)	8%	2%
CCCCCCc1ccc(C(=O)Oc2ccc(C#N)cc2)cc1	11%	2%
CCN(CC)S(=O)(=O)c1ccc2c(c1)c(=O)c(C(=O)N1CCN(c3cccc(Cl)c3)CC1)cn2C	-23%	9%
O=C(CSc1nc(Nc2ccc(F)c(F)c2)c2ccccc2n1)c1ccc(Cl)cc1	-13%	40%[activator]
O=C(CCSc1ccccc1)NCCc1ccc(F)cc1	14%	-2%

# Additional compounds follow:
SMILES	StopGo FLuc	2A Renilla
C=CCNc1nc(-c2ccc3c(c2)OCCCO3)cs1	104%[activator]	13%
COC(=O)CCC(=O)NCc1ccccc1	-5%	-1%
O=C(OCc1ccc(COC(=O)c2ccccc2C(=O)c2ccccc2)cc1)c1ccccc1C(=O)c1ccccc1	21%	25%
Cc1ccc(NC(=O)c2cc(=O)c3cc(C)cc(C)c3o2)cc1	3%	-9%
Cc1cccc(CN2C(=O)CN(S(C)(=O)=O)CC2(C)C(=O)NCc2ccc(F)cc2)c1 (stereo not given)	-7%	-1%
CCC(C)NC(=O)COC(=O)c1c[nH]c2ccccc12 (stereo not given)	35%[activator]	2%
Cn1c(=O)c2c(ncn2CC(=O)N2CC(C(N)=O)Oc3ccccc32)n(C)c1=O (stereo not given)	2%	-3%
O=c1cc(CN2CCCN(c3ccc(C(F)(F)F)cn3)CC2)nc2ccccn12	2%	-19%

# Going on with the list:
SMILES	StopGo FLuc	2A Renilla
c1ccc2cc3n[nH]nc3cc2c1	0%	12%
Cc1ccc(-c2nn(CCC(=O)N3CCN(Cc4ccccc4)CC3)c(=O)c3ccccc23)cc1	20%	15%
Cc1cccc(Cn2c(=O)n(CCC(=O)NCc3ccc4c(c3)OCO4)c(=O)c3sccc32)c1	25%	8%
COc1ccc(S(=O)(=O)N2CCN(CC(=O)NC(C)c3cccs3)CC2)cc1 (stereo not given)	-10%	-7%
CCOC(=O)N1CCc2c(sc3c2c(=O)n(-c2ccc(Cl)cc2)c(=O)n3CC(=O)c2ccc(F)cc2)C1	-2%	-6%
CCOc1ccccc1NC(=O)CN1C(=O)COc2ccc(S(=O)(=O)NC3CCCC3)cc21	-3%	55%[activator]
Cc1ccc(NC(=O)CCn2cnc3c2c(=O)n(C)c(=O)n3C)cc1Cl	-1%	2%
COC(=O)c1ccc(Nc2ncnc3c2nc2n3CCCC2)cc1	14%	?

# The listing continues:
SMILES	StopGo FLuc	2A Renilla
Cn1c(-c2cccc(Br)c2)cnc1NCc1cccc(F)c1	75%[activator]	60%[activator]
CCC1CCCCN1S(=O)(=O)c1ccc(C(=O)Nc2sc3c(c2C(=O)NC)CCC3)cc1 (stereo not given)	3%	31%[activator]
Cc1ccc(CSC2=Nc3ccccc3C3=NC(CCC(=O)NC4CCCCC4)C(=O)N23)cc1 (stereo not given)	9%	8%
OCC1CCCCC1CN1CCNCC1 (stereo not given)	-9%	-6%
CCOC(=O)c1cc(-c2ccccc2)n(CCCC(=O)Nc2cc(C)ccc2OC)c1C	-15%	-10%
COc1ccccc1NC(=O)Cn1c(=O)n(Cc2ccccc2)c(=O)c2c1c1cc(C)ccc1n2C	-6%	0%
O=C(Nc1cccc(-c2nc3cc(Cl)ccc3o2)c1)c1cccc([N+](=O)[O-])c1	15%	-9%
CCCCOc1ccc(C(=O)N(Cc2ccc(N(C)C)cc2)Cc2ccco2)cc1	-18%	0%

# Next entries follow.
SMILES	StopGo FLuc	2A Renilla
O=c1[nH]c2ccccc2n1C1CCNCC1	-9%[11.5 µM]	-9%
CCOC(=O)c1[nH]c2ccc(C)cc2c1NC(C)=O	22%	-10%
CCOC(=O)c1cccc(NC(=O)c2cc3ccccn3n2)c1	?	24%
CC(=O)c1ccc2[nH]c(C(=O)O)cc2c1	0%	11%
CC(=O)NC1(C(F)(F)F)C(=O)Nc2c1c(=O)[nH]c(=O)n2Cc1ccccc1 (stereo not given)	-10%	0%
CN1CCN(C(=O)O[C@H]2c3nccnc3C(=O)N2c2ccc(Cl)cn2)CC1	2%[11.5 µM]	-5%
O=c1c(N2CCN(Cc3ccccc3)CC2)csc2ccc(Br)cc12	0%	-5%

# Assay outcomes from PubChem BioAssay.
